Screening results from PubChem BioAssay.
Rango release inh: qHTS Assay for Inhibitors of RanGTP induced Rango (Ran-regulated importin-beta cargo) - Importin beta complex dissociation; Potency, µM (top dose mostly 46.1 µM), without a hit: at the top dose activity change, negative = inhibition; AID 540253, 2011; 0.071% of 340,000 active; Biochemical FRET Rango-importin beta, RanGTP-induced dissociation; active means falling FRET ratio curve, often poorly fitted, with flat reads before Ran was added; inconclusive means other falling curves, or compound fluorescence or quenching; inactive means flat or rising ratio curve;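 further: potency means the concentration at half of the fitted maximal effect; % of control where 0% means no effect; nearly all actives have a fitted effect of over 45% in size; -100% = wells without RanGTP and RCC1; the record marks most hits as doubtful in a second field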
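Compounds sat 5 min at room temperature with 0.1 uM Rango biosensor plus 0.25 uM importin beta, then FRET pre-read. RanGTP-RCC1 (0.6 uM Ran, 2mM GTP, 0.2 uM RCC1) added for 45 min, and the CFP/YFP post-read measured blocked complex dissociation.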
Rango-impB inh: qHTS Assay for Inhibitors of Rango (Ran-regulated importin-beta cargo) - Importin beta complex formation; Rango CFP/YFP FRET sensor + importin beta, 45 min; Potency, µM (titrated, usually from 92.2 µM), inactives show top-dose inhibition of complex formation; 0.031% of 340,000 active; AID 540263, 2011; active = rising FRET ratio curve, often small or poorly fitted; inconclusive = mostly compound fluorescence or quenching in the first reads; inactive = flat curves in all reads;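 further: potency means the concentration at half of the fitted maximal effect; 0% = DMSO wells and 100% = buffer wells lacking importin beta; nearly all actives have a fitted effect of over 15% in size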
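FRET biosensor (snurportin 1 IBB flanked by EYFP and cerulean), 50 nM, with compound 5 min, then 0.125 microM importin beta in PBS, 1 mM DTT, 0.02% Tween-20, 0.1% BSA. CFP/YFP ratio read after 45 min at room temperature; pre-read flags interference.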
miR-21 reporter: qHTS Assay for Modulators of miRNAs and/orActivators of miR-21; HeLa miR-21 FLuc reporter, luciferase, 48 h; Potency, µM (titrated, usually from 38.3 µM), for the others: top-dose reporter change, positive = more light; 340,000 tested, under 10 active; active = well fitted rising curve with a large enough effect; inconclusive = small, poorly fitted or top-dose-only effect; inactive = no such curve, though single readings can be large or run the other way;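 further: % of control where 0% means no effect; miR-21 action dims this reporter so a rising signal means less miR-21 action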
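HeLa miR-21-FLuc reporter line, endogenous miR-21; 2000 cells/well in DMEM/10% FBS; compound titration up to ~40uM final, 48 h, 37 degree Celsius; luciferase detection reagent, 15 min lysis, CCD luminescence.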
GLA inh pH 4.5: qHTS Assay for Inhibitors of Human alpha-Galactosidase at pH 4.5; activity change, negative = inhibition, % at 105 µM; Alpha-galactosidase A (Homo sapiens), P06280; AID 1467, 2008; 230,000 tested, under 10 active; purified enzyme, 4-MU-alpha-Gal fluorescence, pH 4.5; inconclusive = small, poorly fitted or top-dose-only inhibition, or a rising curve; inactive = flat fitted curve, though single readings scatter; no compound was filed as active;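 further: 0% = full activity with enzyme and -100% = basal without enzyme; dose as in the result columns while the protocol names 77 µM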
Target sequence (P06280 whole entry, looked up): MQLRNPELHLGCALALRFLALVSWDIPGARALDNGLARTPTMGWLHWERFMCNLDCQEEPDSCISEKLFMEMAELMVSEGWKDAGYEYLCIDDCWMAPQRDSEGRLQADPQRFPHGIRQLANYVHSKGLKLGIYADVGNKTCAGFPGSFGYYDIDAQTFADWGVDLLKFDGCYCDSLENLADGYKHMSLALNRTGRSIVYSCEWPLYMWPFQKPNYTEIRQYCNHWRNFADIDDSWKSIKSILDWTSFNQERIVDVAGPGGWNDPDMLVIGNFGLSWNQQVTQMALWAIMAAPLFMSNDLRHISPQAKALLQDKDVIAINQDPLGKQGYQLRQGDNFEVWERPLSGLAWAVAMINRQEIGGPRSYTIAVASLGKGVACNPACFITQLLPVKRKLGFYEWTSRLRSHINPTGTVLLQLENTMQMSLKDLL
Starred values were filed as active, the others as inactive; ? = inconclusive; . = not tested or not shown; & = joins results of further samples. An excerpt (hit frequency here may not be typical).

entry	Rango release inh	Rango-impB inh	miR-21 reporter	GLA inh pH 4.5	compound
1	-18%	3.5%	2%	-2	COc1cccc(C(=O)C2CCCN(C(=O)c3cccc(C#CC(C)(C)O)c3)C2)c1 (centres undefined)
2	?	?	-9%	-15	COc1cc(/C=C2/SC(=S)N(CC(=O)Nc3nc4ccccc4s3)C2=O)cc(OC)c1OC
3	10%	-3.4%	0%	5	O=C(NCC1CCCO1)C1CC(=O)N(C2CCCC2)C1 (centres undefined)
4	-8%	0.1%	-7%	-4	O=S(=O)(c1cccc2cccnc12)N1CCCc2ccccc21
5	0%	5.8%	1%	.	Cc1ccc(NC(=O)CCc2c(C)nn(-c3ccc(N4CCCCC4)nn3)c2C)cc1C
6	3%	3.6%	.	.	C[C@H](CO)N1C[C@H](C)[C@@H](CN(C)Cc2ccc(Oc3ccccc3)cc2)Oc2c(NS(=O)(=O)c3cn(C)cn3)cccc2C1=O
7	0%	0.9%	3%	5	COc1cc(C(=O)OC2CCCCC2=O)cc(OC)c1C (centres undefined)
8	13%	0.3%	1%	2	Cc1ccc(CCNC(=O)C2CCCN2S(=O)(=O)c2ccc3c(c2)CCC(=O)N3)cc1 (centres undefined)
9	14%	-1.1%	.	.	Cc1nn(-c2ccccc2)c(C)c1NC(=O)COC(=O)CCOc1ccccc1
10	26%	-4.1%	-22%	1	FC(F)(F)c1cc(-c2ccco2)nc2ncnn12
11	-9%	-4.8%	5%	1	CCCCNS(=O)(=O)c1ccc(NS(=O)(=O)c2c(C)cc(C)cc2C)cc1
12	-12%	-2.8%	.	.	CCC1(c2ccccc2)NC(=O)N(CC(=O)NC2CCCCCC2)C1=O (centres undefined)
13	-14%	-0.8%	-28%	-19	COc1ccc(-c2cc(-c3n[nH]c(=S)n3-c3cc(OC)ccc3OC)[nH]n2)cc1
14	-8%	5.5%	20%	-4	Cc1ccn2c(Nc3ccccc3)c(-c3ccccn3)nc2c1
15	0%	-1.8%	-61%	-4	CSc1nc2ccc(NC(=O)c3ccco3)cc2s1
16	2%	?	-24%	3	Cc1ccc(C(=O)c2cn[nH]c2-c2ccccc2O)cc1
17	27%	5.3%	.	.	C=CCNC(=O)c1onc(CSc2ccc(F)c(F)c2)c1C(=O)NCC=C
18	8%	-1.6%	-1%	1	Cc1ccc(OCC(=O)OCC(=O)c2c(N)n(C)c(=O)n(C)c2=O)cc1C
19	-1%	-3.5%	.	.	Cc1c(NC(=O)C(C)OC(=O)CCc2c[nH]c3ccccc23)c(=O)n(-c2ccccc2)n1C (centres undefined)
20	20%	-1.6%	0%	-5	O=C(NCCCn1ccnc1)C(=O)NCC1OCCN1S(=O)(=O)c1ccccc1 (centres undefined)
21	0%	2.6%	-39%	.	CN(Cc1ccccc1)C(=O)c1ccc(NC(=O)C2=CSCCO2)cc1
22	11%	6.5%	25%	-1	CCCOC(=O)c1[nH]c2c(c1C)C(=O)CC(c1cc(OC)c(OC)c(OC)c1)C2 (centres undefined)
23	-6%	-0.1%	-1%	?	O=C(CCS(=O)(=O)c1cccc2nonc12)N1CC(=O)N(CCc2ccccc2)C(=O)C1
24	-15%	?	-59%	.	CCCC(=O)Nc1ccc(NC(=O)c2cc3ccccc3o2)c(OC)c1
25	-8%	-1.6%	-29%	-2	CCOC(=O)c1c(C)[nH]c(N=Nc2ccccc2Cl)c1C
26	-19%	?	.	.	CC1=CC2C(C(O)CC3(C)C2CC(C)C32OCOC23COCO3)C2(C)C/C(=C\O)C(=O)C=C12 (centres undefined)
27	-3%	-0.9%	0%	1	O=C(O)CCCSCC(=O)Nc1ccccc1
28	1%	-2.3%	-3%	-3	NC(=S)NNC(=O)c1cc(C(F)(F)F)cc(C(F)(F)F)c1
29	10%	0.9%	-9%	4	CC(=O)CCc1c[nH]c2c(C(=O)O)cccc12
30	-6%	-3.1%	-8%	.	COCCCNC(=O)c1ccc2c(c1)ncn2-c1ccc(C)cc1C
31	-24%	-1.1%	?	3	O=C(CN1C(=O)c2ccccc2S1(=O)=O)c1ccc(F)cc1
32	-9%	0.7%	.	.	CS(=O)(=O)c1ccc(Cl)c(C(=O)Nc2ccc3nc(N4CCOCC4)sc3c2)c1
33	4%	-0.2%	-3%	0	CCN(CC)C(=O)C1CCCN(Cc2sccc2C)C1 (centres undefined)
34	-16%	-0.5%	-5%	.	COc1cc(=O)[nH]c(SC(C)C(=O)Nc2nc3c(s2)CCCC3)n1 (centres undefined)
35	-3%	6.5%	-4%	-2	Nc1ccccc1NC1CCCCC1
36	-8%	-1.9%	0%	7	CC1=C(C(=O)Nc2ccccc2F)C(c2cccs2)C2=C(CCCC2=O)N1 (centres undefined)
37	-2%	3.4%	0%	9	CCOc1ccc(-c2c(C#N)c(N)nc3c2c(=O)n(C)c(=O)n3C)cc1OC
38	5%	4.8%	-5%	9	Cc1cc2cc(C=O)c(Cl)nc2cc1C
39	6%	-1.8%	0%	-1	O=C(COc1ccc(Br)cc1)N/N=C1/SCC(=O)N1Cc1ccccc1
40	5%	-1.7%	1%	8	CN(C(=O)CSc1nnnn1-c1ccc(O)cc1)C1CCS(=O)(=O)C1 (centres undefined)
41	3%	-0.9%	3%	4	Cc1ccc(O)c(NC(=O)CSc2ccc(Cl)cc2)c1
42	13%&-2%	0.7%&-2.4%	-3%	-4	CCOC(=O)N1CCC(Nc2c(NCCN3CCN(c4ccccc4F)CC3)c(=O)c2=O)CC1
43	-8%	5.0%	-36%	1	Nc1ncccc1OCc1ccc(Cl)c(Cl)c1
44	3%	4.6%	-6%	2	CCc1cccc(C)c1NC(=O)COn1nnc2ccc(C(F)(F)F)cc21
45	-1%	-0.4%	-29%	.	CCc1ccc(NC(=O)CCc2c(C)nn(-c3ccc(N4CCCCC4)nn3)c2C)cc1
46	-6%	0.8%	0%	1	CCOC(=O)CCC(=O)Nc1ccc(S(=O)(=O)N2CCCC2)cc1
47	10%	0.7%	-8%	3	COc1ccccc1NC(=O)NCCCN1CCN(c2cccc(Cl)c2)CC1
48	18%	0.2%	2%	-2	COc1cc(/C=C2\C(=O)N(c3ccc(NC(C)=O)cc3)N=C2c2ccccc2)ccc1O
49	-3%	4.4%	-5%	.	CCOc1ccccc1-c1nc(CN2CCC(C(=O)N3CCOCC3)CC2)c(C)o1
50	20%	?	0%	3	CC(=O)Nc1ccc(NC(=O)C(C)OC(=O)C2CCN(S(=O)(=O)c3cccs3)CC2)cc1 (centres undefined)
51	11%	?	-2%	0	O=C1CCc2cc(S(=O)(=O)N3CCC(C(=O)NC4CCCCCCC4)CC3)ccc2N1
52	-14%	1.0%	-25%	.	CC(=O)c1ccc(C(=O)N2CCCC(N3CCN(c4ccc(F)cc4)CC3)C2)s1 (centres undefined)
53	8%	-0.7%	.	.	Cc1[nH]c(=O)nc(NN=Cc2ccc(Cl)cc2)c1C(=O)Nc1ccc(Cl)cc1
54	.	.	-2%	0	Cc1ccc(C)n1-c1cccc(N)c1
55	1%	2.9%	-4%	.	CC(CNc1nc2ccc(Cl)cc2n2cnnc12)c1ccccc1 (centres undefined)
56	-8%	2.9%	0%	.	Cc1nn(CCCC(=O)NCCc2ccccc2)c(=O)c2nn(-c3ccccc3)c(C)c12
57	-4%	-0.9%	-4%	-5	COc1ccc(S(=O)(=O)N(C)CC(=O)NCc2cccnc2)cc1C
58	33%	0.6%	-5%	.	COc1cccc(-c2nc(CS(=O)(=O)CC(=O)NCCCN3CCOCC3)c(C)o2)c1
59	4%	-2.4%	1%	-11	Cc1c(C(=O)O)c(=O)n(-c2ccccc2)n1-c1ccccc1
60	-7%	-2.6%	5%	-9	COc1ccc(OC)c(/C=N/Nc2cc(C)nc(N3CCOCC3)n2)c1

Further structures follow:
entry	Rango release inh	Rango-impB inh	miR-21 reporter	GLA inh pH 4.5	compound
61	10%	-0.4%	.	.	O=C(NNC(=O)c1cccs1)c1ccc(Cl)c(S(=O)(=O)N2CCCC2)c1
62	-16%	-0.4%	11%	-1	CCOC(=O)c1c(C)[nH]c(C)c1C(=O)COc1ncnc2cc([N+](=O)[O-])ccc12
63	14%	3.0%	.	.	COc1ccc(CN(C)C(=O)C(Cc2ccccc2)NC(=O)c2ccccc2)cc1F (centres undefined)
64	31%	0.4%	-3%	.	CCOc1ccc(N(CC(=O)N2CCOCC2)S(=O)(=O)c2ccc(SC)cc2)cc1
65	1%	0.7%	2%	.	CCOCCc1nnc(NC(=O)C2CC(=O)N(c3ccc(OCC)cc3)C2)s1 (centres undefined)
66	-22%	-4.3%	-5%	0	Cn1c(N)c(C(=O)COC(=O)c2ccc3c(c2)C(=O)N(c2ccc(Cl)cc2)C3=O)c(=O)n(C)c1=O
67	-5%	0.5%	-21%	-2	COc1ccccc1-c1cc(C(F)(F)F)nc(N2CCOCC2)n1
68	1%	5.3%	-6%	19	COc1cccc(NC(=S)NCCCN2CCOCC2)c1
69	12%	-2.2%	0%	0	O=C(CCCN=C1NS(=O)(=O)c2ccccc21)OCC(=O)N1CCc2ccccc21
70	-12%	-4.4%	.	.	O=C(Cc1ccc(S(=O)(=O)N2CCOCC2)s1)NCCc1ccc(F)cc1
71	0%	-1.9%	7%	4	Cc1ccc(N(C(=O)Cc2cccs2)C2C=CS(=O)(=O)C2)cc1Cl (centres undefined)
72	2%	-1.4%	.	.	O=C1OC(c2ccccc2)=N/C1=C/c1cccc(OC(=O)c2cccs2)c1
73	6%	-0.3%	-23%	-12	Cn1cc(Cl)c(C(=O)Nc2cccc(Cl)c2Cl)n1
74	1%	-2.2%	.	.	C[C@@H]1CN([C@@H](C)CO)C(=O)c2cc(NC(=O)CCC(F)(F)F)ccc2O[C@H]1CN(C)S(=O)(=O)c1ccc(Cl)cc1
75	-7%	-2.1%	.	.	C(#CCN1CCOCC1)CCCN1CCOCC1

As entered above:
#21 | miR-21 reporter: -39%
#9 | Rango release inh: 14%
#4 | Rango-impB inh: 0.1%
#20 | GLA inh pH 4.5: -5
#12 | Rango-impB inh: -2.8%
#58 | Rango release inh: 33%

Filtered by structure: those above with a CF3 group (5)
entry	Rango release inh	Rango-impB inh	miR-21 reporter	GLA inh pH 4.5	compound
10	26%	-4.1%	-22%	1	FC(F)(F)c1cc(-c2ccco2)nc2ncnn12
28	1%	-2.3%	-3%	-3	NC(=S)NNC(=O)c1cc(C(F)(F)F)cc(C(F)(F)F)c1
44	3%	4.6%	-6%	2	CCc1cccc(C)c1NC(=O)COn1nnc2ccc(C(F)(F)F)cc21
67	-5%	0.5%	-21%	-2	COc1ccccc1-c1cc(C(F)(F)F)nc(N2CCOCC2)n1
74	1%	-2.2%	.	.	C[C@@H]1CN([C@@H](C)CO)C(=O)c2cc(NC(=O)CCC(F)(F)F)ccc2O[C@H]1CN(C)S(=O)(=O)c1ccc(Cl)cc1

New compounds follow:
entry	Rango release inh	Rango-impB inh	miR-21 reporter	GLA inh pH 4.5	compound
76	0%	-5.0%	-13%	-1	CC(=O)c1ccc(NC(=O)CSC(=S)N2CCCC2)cc1
77	-7%	0.3%	.	.	O=C(Nc1ccccc1C(=O)NC1CC1)c1ccc([N+](=O)[O-])o1
78	-16%	-1.1%	3%	-4	COc1ccc(OC)c(NC(=O)CCc2c[nH]c3ccccc23)c1
79	23%	0.1%	1%	4	COc1ccccc1NC(=O)CC1SC(=N)N(c2ccccc2)C1=O (centres undefined)
80	-1%	-3.3%	-14%	12	CC(=O)Nc1cccn(Cc2c(Cl)cccc2Cl)c1=O
81	1%	-1.1%	-62%	-5	O=C(Nc1ccccc1)c1cc(-c2ccccc2Cl)no1
82	-8%	5.5%	5%	2	O=C(NC1CC1)C1=C[C@@H](C2CCCCC2)C[C@@H](OCc2ccc(CO)cc2)O1
83	0%	-0.3%	-18%	.	CCc1sc(C(=O)NCc2ccco2)cc1Br
84	-25%	?	.	.	Cc1cc(CNC[C@H]2O[C@@H](n3cnc(C(N)=O)n3)[C@H](O)[C@@H]2O)c(C)n1-c1cccnc1
85	-3%	-3.4%	-40%	-9	O=C(O)/C=C/c1cn(-c2ccccc2)nc1-c1cc2ccccc2oc1=O
